Screening data deposited in PubChem by Broad Institute.
UUG fidelity = modulators of start codon recognition fidelity in yeast; S. cerevisiae UUG-firefly luciferase reporter, luminescence/redox ratio; activity score, % at 18.7 µM; hit rate 0.13% among 350,000; AID 602363;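 active = replicate mean at a twofold rise or more, about +100% in these data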;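 note: firefly luciferase made from a UUG start codon reports start codon fidelity; reporter light over untreated wells divided by growth signal over untreated wells; some hits fall short of that in this replicate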
Env fusion inh = blocks HIV Env-driven cell-cell fusion; HeLa-JRFL Env/CEM21 cell fusion, luciferase; inhibition, % at 12.3 µM; hit rate 1.1% among 360,000;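 active = mean replicate inhibition score of at least 50 and every replicate individually at or above 50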;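 note: 0% = plate neutral controls and 100% = maraviroc near 300 nM; one replicate is shown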
Starred values were filed as active, the others as inactive; [ ] = another dose, or the depositor's remark.

SMILES	UUG fidelity	Env fusion inh
Cc1ccc(S(=O)(=O)N[C@H]2C=C[C@H](CC(=O)NCc3ccc(Cl)c(Cl)c3)O[C@@H]2CO)cc1	-21	34[16.7 µM]
Cc1noc(C)c1NC(=O)N(C)C[C@H]1Oc2c(NS(=O)(=O)c3ccccc3)cccc2C(=O)N([C@H](C)CO)C[C@H]1C	-3	-9[16.7 µM]
CC(C)NC(=O)N(C)C[C@@H]1Oc2ccc(NC(=O)Nc3ccccc3)cc2C(=O)N([C@H](C)CO)C[C@@H]1C	-4	6[16.7 µM]
O=C(C[C@@H]1C[C@H]2c3cc(NC(=O)C4CCOCC4)ccc3O[C@H]2[C@@H](CO)O1)NC1CCCC1	-1	-16[16.7 µM]
C[C@H]1CN([C@@H](C)CO)C(=O)c2cc(NS(=O)(=O)c3ccc(F)cc3)ccc2O[C@H]1CN(C)Cc1ccc(C(F)(F)F)cc1	1	-12[16.7 µM]
CN(C)CC#Cc1ccc([C@H]2[C@@H](CO)N(C(=O)C3CC3)[C@H]2C#N)cc1	-10	-3[16.7 µM]
C[C@@H]1CN([C@@H](C)CO)C(=O)c2cc(C#Cc3ccc(F)cc3)cnc2O[C@@H]1CN(C)C(=O)Nc1ccc(F)cc1	-11	-8[16.7 µM]
CCS(=O)(=O)NCC[C@H]1CC[C@@H](NC(=O)Cc2ccccn2)[C@H](CO)O1	-3	4[16.7 µM]
C[C@@H]1CN([C@H](C)CO)S(=O)(=O)c2ccc(-c3cccc(C#N)c3)cc2O[C@@H]1CN(C)C(=O)c1ccccc1	-13	-8[16.7 µM]
COc1cccc(NC(=O)N[C@H]2CC[C@H](CC(=O)NCc3ccncn3)O[C@H]2CO)c1	-8	-2[16.7 µM]
CO[C@@H]1CN(C)C(=O)c2cc(NS(=O)(=O)c3cccc(Cl)c3)ccc2OC[C@@H](C)NC[C@H]1C	-8	-11[16.7 µM]
Cc1noc(C)c1NC(=O)N[C@@H]1CC[C@@H](CCNC(=O)C2CC2)O[C@@H]1CO	5	7[16.7 µM]
C[C@@H]1CN([C@H](C)CO)C(=O)c2cc(NC(=O)NC3CCCCC3)ccc2O[C@@H](C)CCCCO[C@H]1CN(C)S(C)(=O)=O	20	2[16.7 µM]
COc1ccc(S(=O)(=O)N(C)C[C@@H]2Oc3ncc(-c4ccc(F)cc4)cc3C(=O)N([C@H](C)CO)C[C@@H]2C)cc1	10	39[16.7 µM]
C[C@@H]1CCCCO[C@H](CN(C)Cc2ccc(C(=O)O)cc2)[C@H](C)CN([C@@H](C)CO)C(=O)c2cc(NC(=O)Nc3ccccc3)ccc2O1	-6	-26[16.7 µM]
O=C(N[C@@H]1CC[C@H](CCNC(=O)C2CCCC2)O[C@@H]1CO)c1ccccn1	2	3[16.7 µM]
C[C@H](CO)N1C[C@H](C)[C@@H](CN(C)Cc2cncnc2)Oc2cc(-c3cccnc3)ccc2S1(=O)=O	-18	4[16.7 µM]
C[C@@H]1CCCCO[C@H](CN(C)C(=O)CCCN(C)C)[C@@H](C)CN([C@H](C)CO)C(=O)c2cc(NC(=O)CCC(F)(F)F)ccc2O1	-12	30[16.7 µM]
C[C@@H]1CN([C@H](C)CO)C(=O)c2cc(NC(=O)Nc3ccc(C(F)(F)F)cc3)ccc2O[C@@H](C)CCCCO[C@@H]1CN(C)CC1CCCCC1	6	9[16.7 µM]
Cc1ccc(S(=O)(=O)Nc2ccc3c(c2)C(=O)N([C@H](C)CO)C[C@@H](C)[C@H](CN(C)C(=O)C2CCCCC2)OCCCC[C@@H](C)O3)cc1	1	23[16.7 µM]
CCC(=O)N(C)C[C@@H]1Oc2cc(C#CC3CC3)ccc2S(=O)(=O)N([C@@H](C)CO)C[C@@H]1C	2	16[16.7 µM]
CC(C)C#Cc1ccc2c(c1)O[C@H](CN(C)C)[C@H](C)CN([C@@H](C)CO)S2(=O)=O	3	-30[16.7 µM]
Cc1ccc(S(=O)(=O)Nc2ccc3c(c2)C(=O)N([C@@H](C)CO)C[C@H](C)[C@@H](CN(C)S(C)(=O)=O)O3)cc1	-12	1[16.7 µM]
C[C@H](CO)N1C[C@H](C)[C@H](CN(C)S(=O)(=O)c2cn(C)cn2)Oc2ncc(-c3ccccc3)cc2C1=O	-9	-5[16.7 µM]
Cc1noc(C)c1NC(=O)N[C@@H]1C=C[C@@H](CC(=O)NCc2ccc(Cl)c(Cl)c2)O[C@@H]1CO	-2	3[16.7 µM]
CC(C)C#Cc1cnc2c(c1)C(=O)N([C@@H](C)CO)C[C@@H](C)[C@H](CN(C)C(=O)c1cccc(F)c1)O2	-1	4[16.7 µM]
O=C(N[C@H]1CC[C@H](CCNC(=O)C2CCCCC2)O[C@H]1CO)c1ccncc1	-13	7[16.7 µM]
COc1ccccc1C#Cc1cnc2c(c1)C(=O)N([C@H](C)CO)C[C@@H](C)[C@H](CN(C)C(=O)CC1CC1)O2	4	13[16.7 µM]
Cc1ccc(-c2ccc3c(c2)O[C@H](CN(C)C(=O)C2CCC2)[C@H](C)CN([C@H](C)CO)S3(=O)=O)cc1	18	7[16.7 µM]
C[C@@H]1CCCCO[C@@H](CN(C)C(=O)NC2CCCCC2)[C@H](C)CN([C@@H](C)CO)C(=O)c2cc(NS(=O)(=O)c3cccs3)ccc2O1	6	-1[16.7 µM]

4 compounds out of the list above, sorted by the number in UUG fidelity, descending:
structure | UUG fidelity
C[C@@H]1CN([C@H](C)CO)C(=O)c2cc(NC(=O)Nc3ccc(C(F)(F)F)cc3)ccc2O[C@@H](C)CCCCO[C@@H]1CN(C)CC1CCCCC1 | 6
C[C@H](CO)N1C[C@H](C)[C@H](CN(C)S(=O)(=O)c2cn(C)cn2)Oc2ncc(-c3ccccc3)cc2C1=O | -9
C[C@@H]1CCCCO[C@H](CN(C)C(=O)CCCN(C)C)[C@@H](C)CN([C@H](C)CO)C(=O)c2cc(NC(=O)CCC(F)(F)F)ccc2O1 | -12
C[C@H](CO)N1C[C@H](C)[C@@H](CN(C)Cc2cncnc2)Oc2cc(-c3cccnc3)ccc2S1(=O)=O | -18

4 records drawn at random from those above:
SMILES	UUG fidelity	Env fusion inh
C[C@H](CO)N1C[C@H](C)[C@@H](CN(C)Cc2cncnc2)Oc2cc(-c3cccnc3)ccc2S1(=O)=O	-18	4[16.7 µM]
C[C@@H]1CCCCO[C@H](CN(C)Cc2ccc(C(=O)O)cc2)[C@H](C)CN([C@@H](C)CO)C(=O)c2cc(NC(=O)Nc3ccccc3)ccc2O1	-6	-26[16.7 µM]
CC(C)C#Cc1ccc2c(c1)O[C@H](CN(C)C)[C@H](C)CN([C@@H](C)CO)S2(=O)=O	3	-30[16.7 µM]
Cc1ccc(S(=O)(=O)N[C@H]2C=C[C@H](CC(=O)NCc3ccc(Cl)c(Cl)c3)O[C@@H]2CO)cc1	-21	34[16.7 µM]

(list continues)
SMILES	UUG fidelity	Env fusion inh
C[C@H]1CN([C@@H](C)CO)C(=O)c2cc(-c3ccc(C#N)cc3)cnc2O[C@@H]1CN(C)CC1CCCC1	-8	-6[16.7 µM]
CC(=O)N(C)C[C@H]1Oc2cc(-c3cncnc3)ccc2S(=O)(=O)N([C@@H](C)CO)C[C@H]1C	-15	-19[16.7 µM]
C[C@@H]1CCCCO[C@H](CN(C)C(=O)CCC(F)(F)F)[C@H](C)CN([C@@H](C)CO)C(=O)c2cc(NS(=O)(=O)c3ccc(F)cc3)ccc2O1	-8	39[16.7 µM]
C[C@@H]1CCCCO[C@H](CN(C)C(=O)c2ccccc2)[C@@H](C)CN([C@H](C)CO)C(=O)c2cc(NS(=O)(=O)c3cccs3)ccc2O1	-8	-3[16.7 µM]
C[C@H]1CN([C@@H](C)CO)C(=O)c2cc(-c3cccc(C#N)c3)cnc2O[C@@H]1CN(C)C(=O)c1cnccn1	5	-15[16.7 µM]
CC(C)CC#Cc1ccc2c(c1)O[C@H](CN(C)C(=O)c1ccccc1)[C@@H](C)CN([C@H](C)CO)S2(=O)=O	-1	-4[16.7 µM]
COc1ccc(NC(=O)Nc2ccc3c(c2)C(=O)N([C@H](C)CO)C[C@H](C)[C@@H](CN(C)C(=O)Nc2ccc4c(c2)OCO4)OCCCC[C@@H](C)O3)cc1	-2	-10[16.7 µM]
C[C@@H]1CN([C@@H](C)CO)C(=O)c2cccc(NC(=O)C3CC3)c2O[C@@H]1CN(C)C(=O)NC1CCCCC1	-2	26[16.7 µM]
Cc1noc(C)c1NC(=O)N[C@H]1CC[C@H](CC(=O)NCc2ccc(Cl)c(Cl)c2)O[C@@H]1CO	-10	2[16.7 µM]
COc1ccc(-c2cnc3c(c2)C(=O)N([C@H](C)CO)C[C@@H](C)[C@H](CN(C)C(=O)Cc2ccccc2)O3)cc1	-3	19[16.7 µM]
CO[C@@H]1CN(C)C(=O)c2ccc(NC(C)=O)cc2OC[C@H](C)N(C(=O)c2ccccn2)C[C@H]1C	-6	-24[16.7 µM]
Cc1ccc(S(=O)(=O)Nc2ccc3c(c2)CC(=O)N([C@@H](C)CO)C[C@H](C)[C@@H](CN(C)C(=O)Nc2ccc4c(c2)OCO4)O3)cc1	-1	0[16.7 µM]
C[C@@H]1CCCCO[C@H](CN(C)C(=O)C2CCCCC2)[C@@H](C)CN([C@H](C)CO)C(=O)c2cc(NC(=O)CCCCCC(=O)Nc3ccccc3N)ccc2O1	26	-11[16.7 µM]
CC(C)C(=O)Nc1ccc2c(c1)C(=O)N(C)[C@@H]1CC[C@H](CC(=O)NCc3ccccc3)O[C@@H]1CO2	16	6[16.7 µM]
Cc1noc(C)c1S(=O)(=O)N(C)C[C@@H]1OCCCC[C@@H](C)Oc2ccc(NC(=O)Nc3cccc4ccccc34)cc2C(=O)N([C@H](C)CO)C[C@H]1C	-10	14[16.7 µM]
Cc1cc(C(=O)Nc2ccc3c(c2)C(=O)N(C)[C@@H]2CC[C@@H](CC(=O)N[C@H](C)c4ccccc4)O[C@H]2CO3)no1	12	11[16.7 µM]
C[C@H](CO)N1C[C@H](C)[C@H](CN(C)C(=O)Nc2ccc3c(c2)OCO3)Oc2ccc(NC(=O)CCCCCC(=O)Nc3ccccc3N)cc2CC1=O	37	10[16.7 µM]
CC(=O)Nc1ccc(NC(=O)c2cc(C3CC3)nc3c2cnn3C(C)C)cc1	1	27
COc1ccc(NC(=O)N(C)C[C@H]2Oc3c(NC(=O)Nc4ccc(C(F)(F)F)cc4)cccc3C(=O)N([C@@H](C)CO)C[C@H]2C)cc1	-1	4[16.7 µM]
C[C@@H]1CN([C@H](C)CO)C(=O)c2cc(NS(=O)(=O)c3ccccc3)ccc2O[C@@H](C)CCCCO[C@H]1CN(C)C(=O)NC1CCCCC1	4	-39[16.7 µM]
COc1ccc(NC(=O)Nc2cccc3c2O[C@@H](CN(C)Cc2ccc(Cl)c(Cl)c2)[C@@H](C)CN([C@H](C)CO)C3=O)cc1	-4	-129[16.7 µM]
COc1ccccc1-c1cn(CC[C@@H]2CC[C@@H](NS(=O)(=O)c3ccccc3C)[C@@H](CO)O2)nn1	-8	7[16.7 µM]
Cc1noc(C)c1NC(=O)N(C)C[C@H]1Oc2ccc(N(C)C)cc2C(=O)N([C@H](C)CO)C[C@@H]1C	13	20[16.7 µM]
CC(C)C#Cc1ccc2c(c1)O[C@@H](CN(C)C(=O)c1cnccn1)[C@H](C)CN([C@H](C)CO)S2(=O)=O	-12	-2[16.7 µM]
Cc1ccc(S(=O)(=O)N[C@H]2C=C[C@@H](CC(=O)NCc3ccccc3F)O[C@@H]2CO)cc1	-3	5[16.7 µM]
CNC(=O)C[C@@H]1CC[C@@H]2[C@@H](COc3ccc(NC(=O)Nc4ccc(F)cc4)cc3C(=O)N2C)O1	-11	18[16.7 µM]
COCC#Cc1ccc2c(c1)O[C@@H](CN(C)C(=O)Nc1ccccc1F)[C@H](C)CN([C@H](C)CO)S2(=O)=O	23	21[16.7 µM]
Cc1noc(C)c1NC(=O)Nc1cccc2c1O[C@@H](CN(C)CC1CCCCC1)[C@H](C)CN([C@@H](C)CO)C2=O	-1	-120[16.7 µM]
COCC(=O)N(C)C[C@H]1Oc2ncc(-c3cccc(OC)c3)cc2C(=O)N([C@@H](C)CO)C[C@@H]1C	6	-7[16.7 µM]
COC(=O)C[C@H]1C[C@@H]2c3cc(NS(=O)(=O)c4ccccc4)ccc3O[C@@H]2[C@H](CO)O1	-5	30[16.7 µM]
COc1ccc(S(=O)(=O)N(C)C[C@@H]2Oc3ccc(NS(C)(=O)=O)cc3CC(=O)N([C@H](C)CO)C[C@@H]2C)cc1	-10	32[16.7 µM]
C[C@H]1CN([C@@H](C)CO)C(=O)c2cccc(NC(=O)C3CCCCC3)c2O[C@@H]1CN(C)S(=O)(=O)c1ccc(Cl)cc1	0	0[16.7 µM]
CCCNC(=O)N1[C@H](C#N)[C@@H](c2ccc(/C=C/c3ccccc3)cc2)[C@H]1CO	-7	-5[16.7 µM]
C[C@@H]1CN([C@@H](C)CO)C(=O)c2cc(NC(=O)NC3CCCCC3)ccc2O[C@@H](C)CCCCO[C@@H]1CN(C)C(=O)Nc1ccccc1	-15	12[16.7 µM]
COc1ccc(CN(C)C[C@@H]2OCCCC[C@H](C)Oc3ccc(NS(=O)(=O)c4ccc(OC)cc4)cc3C(=O)N([C@H](C)CO)C[C@H]2C)cc1	13	-22[16.7 µM]
CCCNC(=O)N[C@@H]1C=C[C@H](CC(=O)NC2CCCCC2)O[C@H]1CO	6	-5[16.7 µM]
C[C@H](NC(=O)C[C@@H]1CC[C@H](NC(=O)C2CCC2)[C@@H](CO)O1)c1ccccc1	-14	-14[16.7 µM]
COc1ccc(NC(=O)N(C)C[C@H]2Oc3c(NS(=O)(=O)c4ccc(C)cc4)cccc3C(=O)N([C@H](C)CO)C[C@@H]2C)cc1	23	-15[16.7 µM]
C[C@@H]1CN([C@H](C)CO)S(=O)(=O)c2ccc(/C=C/c3ccccc3)cc2O[C@H]1CN(C)C(=O)c1cccnc1	-3	2[16.7 µM]
C[C@@H]1CN([C@H](C)CO)S(=O)(=O)c2ccc(C#Cc3ccc(F)cc3)cc2O[C@H]1CN(C)S(=O)(=O)c1ccc(F)cc1	-20	36[16.7 µM]

Some of the compounds tested (hit frequency here may not be typical).
